Bead autofluor = compound fluorescence in toxin protease inhibitor counterscreen | compound autofluorescence counterscreen, microsphere flow cytometry; stronger effect = higher value | fluorescence intensity (concentration not given with the values) | hit rate 3.1% among 360,000 | AID 624483;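 active = at least 3 SD above the mean of all compounds, about 16000 in these data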;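 note: 100 nL of 1 mM stock went into each well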
PrP UTR inh = inhibition of PrP 5' UTR reporter expression; inhibition, % (concentration not given with the values); AID 488862, 2010; hit rate 0.35% among 340,000; cell-based PrP 5' UTR mRNA reporter, plate reader;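 active = every replicate at 50% or more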;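 note: 0 = median of the neutral control wells; tested in H4 reporter cells; numbers are from one replicate; inactives centre near -14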
The depositor's hits bear a star. These rows are one share of the data. The share of hits here may be higher or lower than overall.

smiles | PrP UTR inh | Bead autofluor
CCCCN1CC(COCc2ccccc2)Oc2cc(Br)ccc2S1(=O)=O (stereo unspecified) | -15.5 | 2927
CC(C)NC(=O)N(C)C[C@H]1Oc2ccc(NS(=O)(=O)c3cccs3)cc2C(=O)N([C@H](C)CO)C[C@@H]1C | -5.9 | 3921
Clc1ccc(C2Nc3cccc4cccc(c34)N2)c(Cl)c1 | -10.4 | 3645
C=CCC[C@H](Cc1ccc(F)cc1)C(=O)OC[C@H](Cc1c[nH]c2ccccc12)NC(=O)[C@H](CC=C)CC(=O)N(CCO)Cc1ccccc1 | -22.1 | 3251
COc1ccc(C=NNC(=O)CCCC(=O)NN=Cc2ccc(OC)c(O)c2)cc1O | -5.0 | 3458
O=C(Nc1ccc(S(=O)(=O)N2CCCC2)cc1)c1ccc(F)cc1 | -4.6 | 3902
COC(=O)C1=C(c2ccc(F)cc2OCc2ccccc2)C[C@@H]2CC[C@H]1N2C(=O)NCCc1ccc(F)cc1 | -26.4 | 4330
C[C@H]1NC(=O)[C@@]2(C)[C@@H](c3ccccc3)[C@H]3COc4ccccc4[C@H]3N2C1=O | 1.2 | 2925
CN(C)C(=S)N=c1ssc(=S)n1Cc1ccccc1 | 0.3 | 3126
COC(=O)[C@@]1(Cc2ccc(OC)cc2)[C@@H]2C(=CC(=O)[C@H]2CC(=O)C(=O)N2CCCC2)CN1C(=O)c1ccccc1 | 12.1 | 3977
C=C[C@@]1(C)CCC(/C(C)=C/C=C/C(C)(C)O)C[C@@H]1C(=C)C (stereo partly specified) | -8.9 | 4196
CCOC(=O)[C@@H]1[C@H]2COc3ccccc3[C@H]2N2C(=O)N(c3ccc(Br)cc3)C(=O)[C@]12C | -32.9 | 4103
O=C1NC2C(=CC(O)C(O)C2O)c2cc3c(cc21)OCO3 (stereo unspecified) | 2.6 | 3807
Nc1cccc(Oc2ccc3c(c2)C(=O)N(CCO)C3=O)c1 | -7.8 | 4268
O=C(OCc1ccccc1)N1CCC2CC1c1cc(N3CCOCC3)ccc12 (stereo unspecified) | -21.6 | 4045
O=C(N/N=C/c1ccc(F)cc1)c1ccc(-n2cnnn2)cc1 | -6.8 | 4898
O=C(Cc1ccc(O)cc1)N/N=C/c1cccnc1 | -13.7 | 5968
C=CCC[C@H](Cc1ccc(F)cc1)C(=O)OC[C@@H](Cc1c[nH]c2ccccc12)NC(=O)[C@@H](CC=C)CC(=O)NCCO | 1.4 | 2704
O=C(N[C@H]1C/C=C\C[C@H](CC(=O)N(CCO)Cc2ccccc2)C(=O)N[C@@H](c2ccccc2)COC1=O)OCC1c2ccccc2-c2ccccc21 | -19.0 | 2752
C[C@H]1CN([C@@H](C)CO)C(=O)Cc2cc(NC(=O)C3CC3)ccc2O[C@H]1CN(C)Cc1ccc(Oc2ccccc2)cc1 | -17.8 | 3427
O=C(C[C@@H]1C/C=C/CC[C@@H](Cc2ccc(F)cc2)C(=O)O[C@@H](c2ccccc2)CNC1=O)NCCO | -8.8 | 4034
O=C1c2ccccc2-c2cccc3cccc1c23 | -40.9 | 5372
CCCCCCCCNS(=O)(=O)CCNCc1ccc(OC)cc1 | -8.5 | 4026
N[C@@H]1C[C@H]1c1ccccc1 | 35.1 | 6059
COc1ccc(NC(=O)CO/N=C/C(=O)Nc2ccccc2C)c([N+](=O)[O-])c1 | -35.5 | 4069
COCCN1C(=O)N[C@@H](c2ccccc2)C(C(=O)OC)=C1C | -1.6 | 2799
O=C(O)c1cc(N2CCCC2)ccn1 | -14.9 | 3706
O=C(O)CC1(CC(=O)Nc2nccs2)CCCCC1 | -9.5 | 3195
COc1ccccc1NS(=O)(=O)c1ccc(C(=O)NCC(c2ccc(F)cc2)N2CCOCC2)cc1 (stereo unspecified) | -7.5 | 2961
Brc1ccc(-c2csc(N/N=C/c3ccco3)n2)cc1 | -40.0 | 3045
O=C(C[C@@H]1C/C=C\C[C@H](NC(=O)OCC2c3ccccc3-c3ccccc32)C(=O)OC[C@@H]2CCCN2C1=O)N[C@@H](CO)Cc1ccccc1 | 3.7 | 2665
COc1ccc(S[C@@H](CCN2CC[C@H](C)CCC2=O)c2ccccc2)cc1 | 0.0 | 3561
CC(C)(C)OC(=O)N(Cc1ccccc1)Cc1ccc(OCc2cccc(NC(=O)c3ccccc3)c2)cc1 | -23.2 | 3645
CC(NNC(=S)N1CCN(c2ccccn2)CC1)c1nccc2ccccc12 (stereo unspecified) | 32.5 | 3337
C=CCn1c2ccccc2c(=O)c2cc(C#CC[C@@H](C)O)ccc21 | -24.7 | 2986
CC1([N+](=O)[O-])COP(=O)(NC2CC2)OC1 (stereo unspecified) | -13.4 | 4088
COc1ccc(-c2sc3cc4c(cc3c2C#CC2(N)CCCCC2)OCO4)cc1 | -9.5 | 4099
O=S(=O)(c1ccc(Br)cc1F)N1CCC(O)CC1 | -14.1 | 3404
C=CC[C@@H](CC(=O)N(CCO)Cc1ccccc1)C(=O)N[C@H](COC(=O)[C@@H](CC=C)CC(=O)OC(C)(C)C)Cc1c[nH]c2ccccc12 | -12.9 | 3555
Cc1cccc(C(=O)NCN2CCN(c3ccccc3C#N)CC2)c1 | 81.6* | 5756

A different layout for some results above.
COc1ccc(S[C@@H](CCN2CC[C@H](C)CCC2=O)c2ccccc2)cc1
  PrP UTR inh: 0.0
  Bead autofluor: 3561
CC(NNC(=S)N1CCN(c2ccccn2)CC1)c1nccc2ccccc12 (stereo unspecified)
  PrP UTR inh: 32.5
  Bead autofluor: 3337
C=CCn1c2ccccc2c(=O)c2cc(C#CC[C@@H](C)O)ccc21
  PrP UTR inh: -24.7
  Bead autofluor: 2986

Remaining list, next part
smiles | PrP UTR inh | Bead autofluor
C=CCC[C@H](Cc1ccc(F)cc1)C(=O)OC[C@H](Cc1c[nH]c2ccccc12)NC(=O)[C@H](CC=C)CC(=O)NCCO | -11.8 | 2937
CCOC(=O)/C=C/[C@H]1CC2(CCO1)SCCCS2 | -19.5 | 2912
CCCSc1ccc([C@@H]2[C@@H]3C(=O)N(CC)C(=O)[C@@H]3[C@]3(C(=O)OC)CCCCN23)cc1OC | 3.4 | 3063
CCOc1ccc(S(=O)(=O)Nc2cccc(C(=O)NCCCn3ccnc3)c2)cc1 | -10.7 | 3893
C[C@H](CO)N1C[C@H](C)[C@@H](CN(C)C)Oc2c(NS(=O)(=O)c3ccccc3)cccc2C1=O | -1.1 | 3950
COc1ccccc1-c1cccc([C@@H]2C[C@H]3[C@H](CON3C)CN2C)c1 | -7.3 | 3128
CC(=NNC(=S)N1CCN(c2ccccn2)CC1)c1ccccn1 | -15.0 | 3019
CC(C)(C)OC(=O)C[C@@H]1C/C=C\C[C@H](CC(=O)NCCO)C(=O)N2CCC[C@@H]2COC1=O | -7.6 | 3437
O=C(Cc1cccc(NC(=O)C2CCN(C(=O)C3CCC3)CC2)c1)Nc1cccc(C(=O)N2CCCCC2)c1 | 0.8 | 3881
Cc1ccc2c(c1)[C@H]1[C@H](CO2)[C@H](c2ccccc2)[C@]2(C)C(=O)Nc3cc(Cl)ccc3C(=O)N12 | -17.0 | 4208
COc1ccc2c(c1)[C@H]1[C@H](CO2)[C@H](c2ccccc2)[C@]2(C)C(=O)N(CC3CCCO3)CC(=O)N12 (stereo partly specified) | -9.8 | 4069
CC(=O)OCC1(O)CC23CCC4c5ccoc5CCC4(C)C2CCC1C3 (stereo unspecified) | -5.5 | 5781
N#Cc1c(Br)n(C2OC(CO)C(O)C2O)c2ncnc(N)c12 (stereo unspecified) | 0.0 | 3303
COc1ccc2c3c([nH]c2c1)[C@H]1C[C@H]2[C@H](C[C@@H](O)[C@H](OC)[C@H]2C(=O)O)CN1CC3 | -2.0 | 5822
ON=C1c2ccccc2-c2ccc(O)cc21 | 14.0 | 3538
C=C1C(=O)OC2CC3(C)OC3CCC(C)=CC(OC(C)=O)C12 (stereo unspecified) | -18.0 | 3442
O=C(CC(O)c1ccccc1)Nc1ccccn1 (stereo unspecified) | -18.8 | 3778
O=C1C=C(c2cccc(Br)c2)C[C@@H](c2ccc3c(c2)OCO3)C1 | 3.6 | 3578
C#CCOCCOCCOCCNc1nc(N2CCN(C(=O)CCCCCCCCCCNC(=O)[C@H]([C@@H](C)CC)n3cc(CCCCCN)nn3)CC2)nc(N2CCN(C(=O)CCCCCCCCCCNC(=O)[C@H](CCCCN)n3cc(CCCC(=O)O)nn3)CC2)n1 | -14.2 | 3995
Cc1sc2ccccc2c1CC1=NCCN1 | -14.0 | 4189
COc1ccc(S(=O)(=O)Nc2cccc3c2O[C@H](CN(C)C(=O)NC2CCCCC2)[C@@H](C)CN([C@H](C)CO)C3=O)cc1 | -16.1 | 3270
CC(C)(C)OC(=O)C[C@H]1C/C=C\C[C@H](CC(=O)N[C@H](CO)Cc2ccccc2)C(=O)N[C@H](C(C)(C)C)COC1=O | -12.3 | 4145
Cc1ccccc1S(=O)(=O)N1CC(C(=O)O)=CC[C@H]1c1ccc(Cl)cc1 | -23.3 | 2847
CC1CCN(C(=O)c2ccc3c(c2)OCCO3)CC1 | -67.5 | 2791
NC(=O)C1CCN(c2nc(-c3cccnc3)cs2)CC1 | -12.7 | 3743
C#CCOCCOCCOCCNc1nc(N2CCN(C(=O)[C@H](CCCCN)n3cc([C@@H](N)C(C)CC)nn3)CC2)nc(N2CCN(C(=O)[C@H](Cc3cc4ccccc4[nH]3)n3cc([C@@H](N)C(C)CC)nn3)CC2)n1 (stereo partly specified) | -20.3 | 4257
COc1ccc(OC)c(S(=O)(=O)N2CCCC(C(=O)NC3CC3)C2)c1 (stereo unspecified) | -7.4 | 3904
COc1cccc(-c2sc3ccc(OC)cc3c2-c2ccc(OCCN3CCOCC3)cc2)c1 | -10.6 | 3814
COc1ccc(S(=O)(=O)Nc2ccc3c(c2)CC(=O)N([C@@H](C)CO)C[C@H](C)[C@@H](CN(C)S(=O)(=O)c2ccc(F)cc2)O3)cc1 | -3.1 | 3975
C[C@@H]1CN([C@@H](C)CO)C(=O)Cc2cc(NC(=O)Nc3cccc4ccccc34)ccc2O[C@@H]1CN(C)Cc1ccc(C(F)(F)F)cc1 | -62.3 | 3473
O=C1C=C(c2ccc(-c3ccccc3)cc2)C[C@@H](c2ccc(Cl)cc2)C1 | -7.1 | 3744
O=C1OCC(O)=C1Cc1ccccc1 | -29.5 | 3307
C[C@H]1CN([C@@H](C)CO)C(=O)c2cccc(NS(=O)(=O)c3ccc(F)cc3)c2O[C@H]1CN(C)Cc1ccc(Cl)c(Cl)c1 | -0.1 | 2882
CC(C)(C)[C@H]1COC(=O)[C@@H](NC(=O)OCC2c3ccccc3-c3ccccc32)C/C=C\C[C@@H](CC(=O)N[C@@H](CO)Cc2ccccc2)C(=O)N1 | -8.6 | 3350
O=C1c2ccc(Cl)cc2S(=O)(=O)c2cccc(C(=O)N3CCN(c4ccc(Cl)cn4)CC3)c21 | 1.0 | 3199
Cc1ccccc1C(=O)N1CCC2CC1c1cc(-c3ccc(F)cc3)ccc12 (stereo unspecified) | -5.0 | 3423
COc1ccc([C@@H]2CC=C(C(=O)O)[C@H](c3ccccc3)N2S(=O)(=O)c2ccc(C)cc2)cc1OC | -10.1 | 4268
CN(C)c1ncnc2c1C(c1ccccc1)C(C)(C)O2 (stereo unspecified) | -14.8 | 3907
CCCSc1ccc([C@H]2N[C@@](Cc3ccccc3)(C(=O)OC)[C@H]3C(=O)N(C)C(=O)[C@@H]23)cc1 | -10.5 | 3997
COC(=O)C1=C(c2ccc(OC(F)(F)F)cc2)C[C@@H]2CC[C@H]1N2C(=O)NCCOc1ccccc1Cl | -10.1 | 3682
CC1=CC2OC3CC4OC(=O)C=CC=CC(C(C)O)OCC(O)C(C)CC(=O)OCC2(CC1O)C4(C)C31CO1 (stereo unspecified) | 95.3* | 3778
C=CCn1cnc2c(c1=O)c1nc3ccccc3nc1n2/N=C/c1cccc(OC)c1 | -2.0 | 21328*
CC(C)N(C(=O)CO/N=C/c1cccc([N+](=O)[O-])c1)C(C)C | -22.3 | 3343
O=c1ccn([C@@H]2O[C@H](CNS(=O)(=O)c3csc(-c4ccno4)c3)[C@@H](O)[C@H]2O)c(=O)[nH]1 | -4.6 | 3687
CN1Cc2cnnn2-c2ccccc2C1C#N (stereo unspecified) | 7.1 | 3117
CCN(CC)c1nc(NNC(=O)c2ccccc2)nc(N(CC)CC)n1 | -4.5 | 4259
CC(=O)N1C[C@H]2CON(C)[C@H]2C[C@H]1c1ccccc1Br | -17.2 | 4005
COC(=O)C1=CO[C@@H](O[C@@H]2O[C@H](CO)[C@@H](O)[C@H](O)[C@H]2O)C2C(CO)=CCC12 (stereo partly specified) | -24.0 | 3542
O=c1[nH]c(=O)n(CCCc2ccccc2)cc1-c1ccccc1 | 63.0* | 3870
CN(c1ccccc1)S(=O)(=O)c1cccc(NC(=O)CN2C(=O)NC3(CCCCC3)C2=O)c1 | -7.8 | 3020
CON=C(C(=O)NC1C(=O)N2C(C(=O)O)=C(CSc3nc(=O)c(=O)[nH]n3C)CSC12)c1csc(N)n1 (stereo unspecified) | -9.2 | 5224
Cc1ccccc1OCC(=O)OCC(=O)NCc1ccccc1 | -18.9 | 2938
CCOC(=O)[C@@H]1[C@H]2COc3ccccc3[C@@H]2N2C(=O)N(c3ccc(C)cc3)C(=O)[C@@]12C | -3.2 | 3931
COC(=O)C1=C(C)N(Cc2ccccc2)C(=NCCc2c[nH]c3ccccc23)N[C@H]1c1cccc(F)c1 | 2.3 | 4107
O=c1c([N+](=O)[O-])cn(O)cc1[N+](=O)[O-] | -20.9 | 3465
CC(=O)N1c2ccccc2C2CCCC[C@H]21 (stereo partly specified) | -15.9 | 4291

Screening data (PubChem)
